CSC inhib – cancer stem cell inhibition. inhibition, % at 7.5 µM. AID 2717. hit rate 1.1% among 300,000. cancer stem cell-like cells viability, luminescence;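 active = mean at 75% or more and at least half the replicates too; inconclusive = mean and replicates disagree; tested in HMLE shEcad cells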;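 note: 0% = median of negative and 100% = median of positive control wells; the first replicate is given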
eIF4H FP inh – inhibitors of RNA binding by human eIF4H; Q15056; eIF4H fluorescence polarization binding assay; inhibition, % at 35 µM; hit rate 0.94% among 290,000;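 active = 50% or more with normal probe brightness, or confirmed in later tests; inconclusive = above 50% with abnormal brightness, or retests that disagree; inactive = below 50% or failed in later tests; about a fifth of its hits are not listed in these tables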;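 note: calls also rest on retests at 20 µM and on dose response follow-up; 0% = protein and probe with vehicle and 100% = probe without protein; strong numbers were not always called active; many hits fall short of the cut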
Yeast UUG start – modulators of start codon recognition fidelity in yeast; AID 602363; hit rate 0.13% among 350,000; activity score, % at 18.7 µM; S. cerevisiae UUG-firefly luciferase reporter, luminescence/redox ratio;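 active = replicate mean at a twofold rise or more, about +100% in these data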;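 note: firefly luciferase made from a UUG start codon reports start codon fidelity; reporter light over untreated wells divided by growth signal over untreated wells; some hits fall short of that in this replicate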
Env fusion inh – inhibitors of HIV Env-mediated cell fusion; HeLa-JRFL Env/CEM21 cell fusion, luciferase; inhibition, % at 12.3 µM; hit rate 1.1% among 360,000; AID 651610;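 active = mean replicate inhibition score of at least 50 and every replicate individually at or above 50; inconclusive = only one of the two criteria met; inactive = mean below 50 and not all replicates reaching 50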;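 note: 0% = plate neutral controls and 100% = maraviroc near 300 nM; one replicate is shown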
MT1-MMP act inh – MT1-MMP (human) activation inhibition; hit rate 0.061% among 360,000; AID 651647; GFP/RFP ratio change, % at 20 µM; P50281; HT1080 RFP-PRO-GFP cells, GFP/RFP ratio fluorescence, overnight; percent of plate control window, DMSO zero;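 active = GFP/RFP ratio change of at least 30% with cell ATP level not reduced by more than half and red fluorescence within 50% of control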; note: strong numbers were not always called active
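Test system: HT1080 cells expressing an RFP-PRO-GFP fluorescent reporter construct / Compound dosing: single-point 20 µM compound, 1% DMSO / Schedule: cells overnight before dosing, compound overnight, 37 °C, 5% CO2 / Evaluation: GFP/RFP fluorescence ratio / Control set: DMSO and RFP-L50D-GFP cell wells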
PABP FP inh – blocks human PABP binding to poly(A) RNA. inhibition, % at 35 µM. fluorescence polarization. AID 2014. P11940. hit rate 1% among 290,000;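 active = 50% or more with normal probe brightness, or confirmed in later tests; inconclusive = above 50% with abnormal brightness, or retests that disagree; inactive = below 50% or failed in later tests; about a fifth of its hits are not listed in these tables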;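 note: calls also rest on retests at 20 µM and on dose response follow-up; controls were probe without protein and protein plus probe with vehicle; some compounds called inactive have numbers as strong as hits; many hits fall short of the cut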
Target sequence (P11940 whole entry, looked up): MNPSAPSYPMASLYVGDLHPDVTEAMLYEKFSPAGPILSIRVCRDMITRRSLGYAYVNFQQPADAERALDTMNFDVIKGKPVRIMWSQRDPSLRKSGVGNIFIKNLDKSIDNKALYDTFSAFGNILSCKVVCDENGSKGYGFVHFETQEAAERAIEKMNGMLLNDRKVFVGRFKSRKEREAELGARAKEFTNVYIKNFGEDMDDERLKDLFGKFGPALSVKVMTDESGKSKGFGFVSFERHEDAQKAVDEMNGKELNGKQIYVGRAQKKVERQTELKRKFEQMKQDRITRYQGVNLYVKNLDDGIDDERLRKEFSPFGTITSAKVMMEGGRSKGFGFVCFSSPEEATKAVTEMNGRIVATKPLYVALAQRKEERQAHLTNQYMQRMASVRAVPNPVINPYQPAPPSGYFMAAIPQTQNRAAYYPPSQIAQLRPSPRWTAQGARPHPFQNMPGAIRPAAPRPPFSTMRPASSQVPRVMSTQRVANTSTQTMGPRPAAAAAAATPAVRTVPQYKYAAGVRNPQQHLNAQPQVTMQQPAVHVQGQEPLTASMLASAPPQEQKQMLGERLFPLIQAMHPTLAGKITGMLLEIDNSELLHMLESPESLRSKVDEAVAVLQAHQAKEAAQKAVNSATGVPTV
Rce1 inh – inhibitors of yeast Ras-converting enzyme; hit rate 0.27% among 290,000; yeast membranes, quenched prenylated peptide cleavage fluorescence; Q03530; calls only;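 active = fall in fluorescence gain of 50% or more versus controls, with final raw signal at or below 3038400; inconclusive = same 50% fall but final raw signal above 3038400; inactive = fall in fluorescence gain under 50%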;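 note: plate controls were neutral control wells for no effect and wells lacking membranes for full effect; tested at 10 µM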
Target sequence (Q03530 whole entry, looked up): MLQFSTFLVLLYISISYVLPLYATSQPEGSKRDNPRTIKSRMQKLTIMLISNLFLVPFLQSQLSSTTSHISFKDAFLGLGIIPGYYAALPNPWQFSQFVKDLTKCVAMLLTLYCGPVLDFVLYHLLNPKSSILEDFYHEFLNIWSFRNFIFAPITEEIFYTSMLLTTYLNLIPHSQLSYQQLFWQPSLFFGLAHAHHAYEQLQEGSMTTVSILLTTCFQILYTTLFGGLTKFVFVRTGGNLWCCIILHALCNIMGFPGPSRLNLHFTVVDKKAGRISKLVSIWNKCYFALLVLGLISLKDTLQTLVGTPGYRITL
eIF4H FP inh retest – recorded beside eIF4H FP inh, whose call it bears; inhibition, %; compound at 20 µM; confirmation average;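 mean of two retest wells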
PABP FP inh retest – recorded beside PABP FP inh, whose call it bears; inhibition, %; compound at 20 µM; confirmation repeats;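 mean of two retest wells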
MT1-MMP act inh RFP – also measured in MT1-MMP act inh; calls as there; RFP signal change, %; measured here: RFP expression control read;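 0 = vehicle wells; hits needed this value within 50% of zero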
Numbers without * were called inactive; i = inactive; ? = inconclusive; · = no result given; & = joins results of further samples.

SMILES	CSC inhib	eIF4H FP inh	Yeast UUG start	Env fusion inh	MT1-MMP act inh	MT1-MMP act inh RFP	PABP FP inh	Rce1 inh	others
c1ccc(-c2noc(-c3ccncc3)n2)nc1	45	2	-29	·	3	1	4	i
COc1ccc2c(-c3ccccc3)cc(SCC(=O)N(C)C3CCS(=O)(=O)C3)nc2c1 (stereo unspecified)	-3	-9	·	15	-2	-3	3	i
CCn1c(=O)n(CC)c2cc(N3CCCC3)c(NC(=O)c3cc(Br)ccc3OC)cc21	15	-11	·	5	·	·	-4	i
COc1ccc(S(=O)(=O)N(CC(=O)NC(C)C)Cc2ccccc2)cc1	-7	-5	6	-1	5	2	3	i
COc1ccc(N=[N+]([O-])c2ccc(OC)cc2)cc1	·	·	-27	-266	-3	-2	·	·
COc1ccccc1C(C)NC(=O)c1cc(S(=O)(=O)N2CCCCC2)ccc1C (stereo unspecified)	-5	·	-5	·	0	-5	·	·
COc1ccc(/C(C)=N/NC(=O)OC(C)(C)C)cc1[N+](=O)[O-]	-10	-11	·	5	0	-2	-6	i
COc1ccc(Cl)cc1Cn1c(C)c(C(=O)N(C)Cc2ccc(F)cc2)sc1=O	·	·	-14	-12	4	-3	·	·
CCOc1ccc(CCNC(=O)COC(=O)COc2ccc(Cl)cc2)cc1OCC	·	·	·	-8	1	1	·	i
O=C(CCc1nc2ccccc2[nH]1)Nc1ccccc1F	6	-5	-10	-18	4	3	-14	i
Cc1cc(C(=O)N(C)C2CCCCC2)no1	-16	-7	-17	7	3	4	-4	i
CC(C)Oc1cccc(C(=O)C2CCCN(Cc3cnn(C(C)C)c3)C2)c1 (stereo unspecified)	6	2	·	8	-3	-3	-4	i
COc1ccc(-n2nnnc2SCC(=O)NC2CC2)cc1	-3	·	-10	·	2	0	·	·
c1cc2cc(-c3c(-c4ccc5c(c4)OCO5)noc3-c3ccsc3)ccc2[nH]1	121*	-13	-12	-30	-2	-3	-2	i
CC1CCCCN1Cc1ccc(-c2nnn(CC(=O)NC3CCCCC3)n2)cc1 (stereo unspecified)	52	-5	-4	-255	·	·	-3	i
COc1ccccc1/C=N/NC(=S)NCc1ccco1	12	-3	-27	9	4	0	0	i
O=C(COC(=O)c1ccccn1)Nc1ccc2c(c1)OCO2	-15	0	-9	-5	1	2	-7	i
C[C@]12CC[C@H](OC(=O)CCC(=O)O)CC1=CCC1C2CC[C@@]2(C)C1CC[C@@H]2N (stereo partly specified)	-13	·	-5	-2	-7	-4	·	·
Cc1nc(-c2ccc(Cl)cc2)sc1C1(C)CC(c2ccccc2F)=NO1 (stereo unspecified)	4	-3	-20	-23	1	4	-1	i
CCc1ccccc1N(CC(=O)O)S(C)(=O)=O	·	-3	3	-29	3	12	4	i
Cc1nc(-c2ccncc2)nc(NCCNc2ncccc2C(F)(F)F)c1Cl	-5	3	·	6	-12	-17	1	i
O=C(CSc1nnc(SCc2ccccc2Cl)s1)N/N=C/c1ccc(C(=O)O)cc1	14	-6	-15	-3	-2	-2	-1	i
COc1ccccc1N1CCN(CC(=O)Nc2cc(C)nn2-c2nc(C)cc(C)n2)CC1	·	·	-26	21	0	-11	·	·
CCOC(=O)C1CCCN(C(=O)c2[nH]c3ccc(OC)cc3c2C)C1 (stereo unspecified)	-14	5	-11	-10	-4	-1	-4	i
Cc1ccc2[nH]c3c(c2c1)CN(C(=O)CN1CCCc2ccccc21)CC3	-9	57	-17	-18	-51	0	44	i	eIF4H FP inh retest=34;PABP FP inh retest=34
Cc1ccc(C(=O)COC(=O)COc2ccccc2[N+](=O)[O-])s1	-13	·	-9	-2	-1	0	·	·
CCOC(=O)C1CCN(S(=O)(=O)c2ccc(NC(=O)c3ccco3)cc2)CC1	-3	-5	-1	·	3	-15	-5	i
COc1ccc(C2(c3ccc(OC(C)=O)cc3OC(C)=O)CC(c3ccccc3)NC(=S)N2)cc1 (stereo unspecified)	0	-1	·	15	6	-3	-4	i
C=CCN(c1ccccc1)S(=O)(=O)c1cc2c(cc1C)NC(=O)CO2	·	-2	4	5	0	1	2	i
CCCCN(CCCNC(=O)CN1C(=O)COc2ccc(S(=O)(=O)N3CCC(C)CC3)cc21)Cc1ccccc1	-6	-2	-15	32	3	3	-1	i
O=C(NCc1ccc(F)cc1)c1cc(C2CCCN(C(=O)CCCc3ccccc3)C2)on1 (stereo unspecified)	·	·	11	-4	-6	-13	·	·
Cc1ccc(CNC(=O)Cc2ccc(Br)cc2)cc1	60	-19	-7	-15	-6	-8	-3	i
COc1ccc(CNC(=O)C(OC(=O)c2ccco2)c2ccccc2F)cc1 (stereo unspecified)	·	-11	-7	-1	0	6	2	i
CC(=O)c1ccc(-c2ccc(Cn3c(C)nc4cc(N)c(C)nc43)cc2)cc1	2	2	·	14	5	-5	-8	i
O=C(COc1ccccc1)N1CCN(C(=O)c2ccc([N+](=O)[O-])cc2)CC1	-3	5	·	2	-1	-1	4	i
Cc1cc(C)cc(-n2c(C)cc(/C=N/NC(=O)c3cccc([N+](=O)[O-])c3C)c2C)c1	31	-1	0	·	11	6	-2	i
Cc1cc(C)c(NC(=O)CN2CCN(S(=O)(=O)c3ccc4c(c3)OCCO4)CC2)c(C)c1	·	·	-16	-19	0	5	·	·
COc1cccc(/C=N/NC(=O)C(C)n2nc(C)c([N+](=O)[O-])c2C)c1O (stereo unspecified)	34	20	·	9	-1	-2	19	i
CCOCCCNCC(=O)NC1(C)C2CCC(C2)C1(C)C (stereo unspecified)	-9	-4	-6	3	2	5	-2	i
CC(C)CCn1c(SCC(=O)NC2CC2)nc2cc(Cl)ccc2c1=O	-5	·	-16	-2	5	1	·	i
Cc1ccc(NC(=O)CN2C(=O)NC3(CCCCC3C)C2=O)cc1S(=O)(=O)N1CCOCC1 (stereo unspecified)	·	·	4	-3	3	3	·	·
Cc1ccc(/C=C/C(=O)Nc2ccc([N+](=O)[O-])cc2)o1	43	-5	-10	·	4	-10	12	i
O=C(CSCc1ccc(Br)cc1)Nc1ccc(S(=O)(=O)N2CCOCC2)cc1	-15	12	-14	7	3	-4	8	i
Cc1nc2ccc3nc(NC(=O)C4COc5ccccc5O4)sc3c2s1 (stereo unspecified)	-1	-15	-5	-41	0	-2	2	i
S=C(NCc1ccco1)Nc1ccc(Br)cn1	-29	6	-7	-15	-4	0	14	i
CCCNC(=S)N1CCC(C(=O)c2ccc(Cl)cc2)CC1	-6	-2	-18	2	3	-11	-2	·
CCOc1ccccc1NC(=O)c1nnn(CC(=O)Nc2cc(C)cc(C)c2)c1N	-11	·	-8	5	1	2	·	i
O=C(NCCCN1CCOCC1)c1cc2c(s1)CCC2	7	2	0	-61	3	1	6	i
N#Cc1c(Cl)nc(-c2cccnc2)nc1-c1ccccc1	4	-8	·	·	·	·	8	i
Cc1ccc(NC(=O)C2CCCN(S(=O)(=O)c3cccnc3)C2)c(C)c1 (stereo unspecified)	-6	-12	-16	5	-1	1	-6	i

(further entries)
SMILES	CSC inhib	eIF4H FP inh	Yeast UUG start	Env fusion inh	MT1-MMP act inh	MT1-MMP act inh RFP	PABP FP inh	Rce1 inh	others
Cc1ccc(C(=O)OCCOc2cccc(Cl)c2)cc1S(=O)(=O)N1CCOCC1	15	·	9	-19	5	-3	·	i
Cc1cnc(NC(=O)CCCNC(=O)c2ccc(Cl)cc2)s1	10	·	-9	-34	8	3	·	·
Cc1ccc(S(=O)(=O)Nc2ccc3c(c2)C(=O)N([C@@H](C)CO)C[C@@H](C)[C@@H](CN(C)S(=O)(=O)c2ccccc2)OCCCC[C@H](C)O3)cc1	·	·	2&-14	?	-3	-7	·	·
Cc1nc2c(ccc3c2ccc2nc(C)sc23)s1	-5	0	·	·	·	·	6	i
CCn1c(=O)c2c(n3cnnc13)-c1ccccc1CC21CCCCC1	-4	2	-16	·	-3	-11	1	i
O=C(OCCN=C1NS(=O)(=O)c2ccccc21)c1cccs1	-4	3	·	-14	0	3	-11	i
Cc1ccc(N(CC(=O)NC(C)C)C(=O)CCC(=O)Nc2nccs2)cc1C	-5	-9	3	-5	-2	0	-4	i
COc1cccc(C(=O)c2sc(NC(C)C)nc2N)c1	·	5	-30	·	-2	7	4	i
O=C(Nc1ccc(F)cc1)c1nn(-c2ccccc2)c(=O)cc1Cl	·	-3	·	2	-7	-6	0	i
COc1ccccc1NCC(=O)N/N=C(\C)c1ccc(Br)s1	-7	9	-11	·	5	2	7	i
COc1ccc(NC2CCCN(C(=O)c3csc(C(C)C)n3)C2)cc1 (stereo unspecified)	-18	-14	-13	0	3	-1	7	i
COC(=O)CN1C(=O)N/C(=C/c2ccc(C)o2)C1=O	3	27	·	24	-12	3	9	i
O=C(CCNS(=O)(=O)c1ccccc1)NCCCc1ccccc1	·	·	-4	22	2	5	·	·
COc1ccccc1OCC(=O)Nc1ccncc1	1	4	-11	-12	-1	-6	-13	i
CCOc1cccc(/C=N/N2C(=O)CSC2=S)c1O	-1	5	·	2	8	9	4	i
O=C(Nc1cc(C(F)(F)F)ccc1N1CCOCC1)c1ccc2ccccc2n1	29	-5	-4	-20	2	-3	1	i
CN(C)CCCn1c(SCc2c(Cl)cccc2Cl)nnc1-c1ccncc1	-6	-2	-9	4	-3	1	2	i
COc1ccc(NC(=O)CC2C(=O)NCCN2C(=O)Nc2ccc(C(F)(F)F)cc2)cc1 (stereo unspecified)	9	-2	7	10	1	1	-2	i
NC(=O)C1CCN(S(=O)(=O)Cc2ccccc2Cl)CC1	-5	-1	-24	15	0	4	18	i
CCn1c(SCC(=O)c2ccc(Cl)cc2)nnc1C(C)C	·	-10	-20	-9	-10	-4	-4	i
Cc1ccc(N(C(=O)Cn2nnc(-c3cccs3)n2)C(C(=O)NC2CCCC2)c2ccncc2)cc1 (stereo unspecified)	-14	-3	-14	-102	2	0	-4	i
Cc1ccccc1CN(c1ccc(C(=O)NCc2ccccn2)cc1)S(C)(=O)=O	-11	-1	-11	9	-5	-4	-4	i
Cc1cc(C)cc(NC(=O)C[n+]2ccccc2)c1	-9	-9	0	12	1	1	3	i
Cc1nn(C)cc1/C=N/NC(=O)Cn1cncn1	-5	-6	-22	1	3	-1	-3	·
Cc1ccc(N(C(=O)C2CCCO2)C2C=CS(=O)(=O)C2)cc1Cl (stereo unspecified)	9	-4	-9	·	7	2	10	i
CCn1c(SCC(=O)Nc2ccc3c(c2)c2ccccc2n3CC)nnc1-c1cnccn1	·	2	-2	·	-7	-8	5	i
CCCCn1c(CN2CCN(c3ccccc3)CC2)nc2c1c(=O)n(C)c(=O)n2C	-7	-6	-6	·	-1	-24	-13	i
Cc1ccc(S(=O)(=O)Nc2ccnc(-c3cccnc3)n2)cc1	0	7	·	-1	-1	0	-1	i
Cc1cccc(/C=N/NC(=O)Cc2ccc(Cl)cc2)c1O	16	-8	-8	-77	-5	-6	0	i
CCCN1CC23C=CC(O2)C(C(=O)O)C3C1=O (stereo unspecified)	·	-17	-17	0	-2	5	-2	i
CCOC(=O)c1c(NC(=O)Nc2cccc(Cl)c2)sc(C)c1C	-6	-7	-11	-26	-5	0	-4	i
CCOc1ccccc1/C=N/Nc1ccnc(=O)[nH]1	-6	-8	-27	-4	7	1	3	i

Assay outcomes as filed in PubChem BioAssay.
